CSC inhib: blocks cancer stem cells; cancer stem cell-like cells viability, luminescence; inhibition, % at 7.5 µM; 300,000 tested, 1.1% active;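 active means mean at 75% or more and at least half the replicates too; inconclusive means mean and replicates disagree; tested in HMLE shEcad cells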;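 further: 0% = median of negative and 100% = median of positive control wells; the first replicate is given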
Yeast UUG start: yeast start codon fidelity modulation | S. cerevisiae UUG-firefly luciferase reporter, luminescence/redox ratio | activity score, % at 18.7 µM | 350,000 tested, 0.13% active;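 active means replicate mean at a twofold rise or more, about +100% in these data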;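 further: firefly luciferase made from a UUG start codon reports start codon fidelity; reporter light over untreated wells divided by growth signal over untreated wells; some hits fall short of that in this replicate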
eIF4H inh: inhibitors of RNA binding by human eIF4H. Q15056. eIF4H fluorescence polarization binding assay. inhibition, % at 35 µM. 290,000 tested, 0.94% active. AID 2012;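 active means 50% or more with normal probe brightness, or confirmed in later tests; inconclusive means above 50% with abnormal brightness, or retests that disagree; inactive means below 50% or failed in later tests; about a fifth of its hits are not listed in these tables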;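 further: calls also rest on retests at 20 µM and on dose response follow-up; 0% = protein and probe with vehicle and 100% = probe without protein; strong numbers were not always called active; many hits fall short of the cut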
Env fusion inh: blocks HIV Env-driven cell-cell fusion; HeLa-JRFL Env/CEM21 cell fusion, luciferase; inhibition, % at 12.3 µM; 360,000 tested, 1.1% active; AID 651610;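 active means mean replicate inhibition score of at least 50 and every replicate individually at or above 50; inconclusive means only one of the two criteria met; inactive means mean below 50 and not all replicates reaching 50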;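 further: 0% = plate neutral controls and 100% = maraviroc near 300 nM; one replicate is shown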
MT1-MMP act inh: inhibitors of human MT1-MMP activation; HT1080 RFP-PRO-GFP cells, GFP/RFP ratio fluorescence, overnight; percent of plate control window, DMSO zero; GFP/RFP ratio change, % at 20 µM; 360,000 tested, 0.061% active; AID 651647;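 active means GFP/RFP ratio change of at least 30% with cell ATP level not reduced by more than half and red fluorescence within 50% of control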; further: strong numbers were not always called active
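Assay system: HT1080 cells carrying an RFP-PRO-GFP reporter | Dosing: Single dose of 20 µM compound, 1% DMSO final | Incubation: Cells overnight before dosing, compound overnight, 37 °C, 5% CO2 | Evaluation: GFP/RFP fluorescence ratio | Control set: DMSO and RFP-L50D-GFP cell wells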
Rce1 inhib: yeast Ras-converting enzyme inhibition; calls only; 290,000 tested, 0.27% active; Q03530; yeast membranes, quenched prenylated peptide cleavage fluorescence;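 active means fall in fluorescence gain of 50% or more versus controls, with final raw signal at or below 3038400; inconclusive means same 50% fall but final raw signal above 3038400; inactive means fall in fluorescence gain under 50%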;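 further: plate controls were neutral control wells for no effect and wells lacking membranes for full effect; tested at 10 µM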
PABP FP inh: PABP-poly(A) binding inhibition; P11940; PABP-poly(A) RNA binding, fluorescence polarization; inhibition, % at 35 µM; 290,000 tested, 1% active;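 active means 50% or more with normal probe brightness, or confirmed in later tests; inconclusive means above 50% with abnormal brightness, or retests that disagree; inactive means below 50% or failed in later tests; about a fifth of its hits are not listed in these tables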;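 further: calls also rest on retests at 20 µM and on dose response follow-up; controls were probe without protein and protein plus probe with vehicle; some compounds called inactive have numbers as strong as hits; many hits fall short of the cut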
Target sequence (P11940 whole entry, looked up): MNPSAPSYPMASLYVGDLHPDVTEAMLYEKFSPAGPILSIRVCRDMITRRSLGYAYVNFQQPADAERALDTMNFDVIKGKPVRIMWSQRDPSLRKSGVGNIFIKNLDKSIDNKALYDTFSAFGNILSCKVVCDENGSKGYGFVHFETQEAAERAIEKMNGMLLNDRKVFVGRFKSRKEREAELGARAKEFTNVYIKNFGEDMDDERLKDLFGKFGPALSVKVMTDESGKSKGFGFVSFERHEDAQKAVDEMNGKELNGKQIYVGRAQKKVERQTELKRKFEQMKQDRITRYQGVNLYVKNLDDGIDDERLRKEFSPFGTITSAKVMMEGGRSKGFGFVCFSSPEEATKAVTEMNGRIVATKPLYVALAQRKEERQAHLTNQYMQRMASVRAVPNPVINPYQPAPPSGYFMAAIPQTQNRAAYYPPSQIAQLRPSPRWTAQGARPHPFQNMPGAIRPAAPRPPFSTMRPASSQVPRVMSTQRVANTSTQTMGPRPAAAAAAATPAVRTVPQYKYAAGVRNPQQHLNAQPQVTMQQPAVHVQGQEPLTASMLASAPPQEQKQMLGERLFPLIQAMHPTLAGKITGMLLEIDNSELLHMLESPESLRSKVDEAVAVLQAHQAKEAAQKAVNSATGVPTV
eIF4H inh retest: also measured in eIF4H inh; calls as there; inhibition, %; compound at 20 µM; confirmation average;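 mean of two retest wells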
PABP FP inh retest: also measured in PABP FP inh; calls as there; inhibition, %; compound at 20 µM; confirmation repeats;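 mean of two retest wells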
MT1-MMP act inh RFP: recorded beside MT1-MMP act inh, whose call it bears; RFP signal change, %; measured here: RFP expression control read;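 0 = vehicle wells; hits needed this value within 50% of zero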
* = called active by the depositor; i = inactive; ? = inconclusive; . = no result given; + = active, no number; & = joins results of further samples. Some of the compounds tested; the hit share may differ from the screen's.

SMILES	CSC inhib	Yeast UUG start	eIF4H inh	Env fusion inh	MT1-MMP act inh	MT1-MMP act inh RFP	Rce1 inhib	PABP FP inh	others
O=C(CSc1ccc(-c2ccccn2)nn1)Nc1cccc(F)c1	67	-27	-4	21	4	-15	i	-7
CCc1ccc(N2C(=O)CN(Cc3ccccc3)C2=S)cc1	14	7	-7	-172	-1	-2	i	-8
Cc1cccc(C)c1NC(=O)NC1(C(=O)NCC2CCCO2)CCCCC1 (stereo not given)	-4	-15	-9	-4	-5	-7	i	4
CC1(C(=O)NS(=O)(=O)c2cccc(Cl)c2)CCN1C(=O)Cc1ccc(-c2ccccc2)cc1 (stereo not given)	.	-6	.	19	2	7	.	.
O=C(COc1ccccc1)Nc1nnc(S(=O)(=O)Nc2ccccc2)s1	-5	-4	-2	-23	4	6	i	0
COc1ccc(/C=C/C(=O)NCC(=O)N/N=C/c2cc(Br)ccc2OC)cc1	1	-22	-9	-5	-4	-1	i	-2
O=C(NC1CC2CCCC(C1)N2C(=S)Nc1ccccc1Cl)C1CC1 (stereo not given)	.	-11	-1	3	1	2	i	8
CCc1cccc(C)c1NC(=O)C1CCCN(S(C)(=O)=O)C1 (stereo not given)	-15	2	1	3	-4	-5	i	-7
CCOC(=O)CCCCCC(=O)Nc1ccc2c(c1)CC(=O)N([C@@H](C)CO)C[C@H](C)[C@@H](CN(C)Cc1ccccc1)O2	-8	6	.	-13	0	0	.	.
COc1ccccc1NC(=O)CCC(=O)Nc1ccccc1OC	-4	-19	10	-238	-4	-2	i	7
CCc1nc2sc3c(c2c(=O)o1)CCCC3	11	.	-4	.	-2	2	i	16
CC(NS(=O)(=O)c1ccc(Cl)cc1)C(=O)OCC(=O)Nc1ccc(N(C)C)cc1 (stereo not given)	.	-1	.	1	4	4	.	.
CC1(C)CC2(C)CC(=O)C1C(C(=O)O)C2C(=O)O (stereo not given)	.	-16	.	3	-1	3	.	.
CC(C)(C)c1csc(N/N=C/c2ccc(O)cc2)n1	36	-21	-4	4	10	-8	i	6
COc1ccc(CN2CC(=O)N(c3ccc(C)cc3C)C2=S)cc1OC	-8	.	-1	-23	-5	-5	i	7
COc1ccc(CCNC(=O)CSc2cc(=O)[nH]c(N)n2)cc1OC	-6	7	0	.	7	4	i	2
CC(C)c1nc2oc3c(NCc4ccccn4)ncnc3c2c2c1COC(C)(C)C2	2	-13	.	-18	-3	-4	.	.
CC(C)Sc1snnc1-c1ccccc1	-8	.	-6	3	2	3	i	-14
CC(=O)Nc1nc(C2CC2)cc(-c2ccccc2)c1C#N	-7	.	-1	11	-5	-2	i	-7
Cc1nnc(SCC(=O)NNC(=O)COc2ccc(Cl)cc2)s1	-36	-13	0	4	2	5	i	12

Filtered by structure: the entries above with two or more sulfur atoms
SMILES	CSC inhib	Yeast UUG start	eIF4H inh	Env fusion inh	MT1-MMP act inh	MT1-MMP act inh RFP	Rce1 inhib	PABP FP inh	others
O=C(COc1ccccc1)Nc1nnc(S(=O)(=O)Nc2ccccc2)s1	-5	-4	-2	-23	4	6	i	0
CC(C)Sc1snnc1-c1ccccc1	-8	.	-6	3	2	3	i	-14
Cc1nnc(SCC(=O)NNC(=O)COc2ccc(Cl)cc2)s1	-36	-13	0	4	2	5	i	12

The listing picks up, repeating the 2 entries before the break.
SMILES	CSC inhib	Yeast UUG start	eIF4H inh	Env fusion inh	MT1-MMP act inh	MT1-MMP act inh RFP	Rce1 inhib	PABP FP inh	others
CC(=O)Nc1nc(C2CC2)cc(-c2ccccc2)c1C#N	-7	.	-1	11	-5	-2	i	-7
Cc1nnc(SCC(=O)NNC(=O)COc2ccc(Cl)cc2)s1	-36	-13	0	4	2	5	i	12
N#Cc1ccc(C(=O)CN2CCN(c3ccccc3)CC2)cc1	12	8	9	-12	-6	3	i	6
C=CCN1CCN(C(=O)c2ccc3c(c2)OCO3)CC1	0	-30	-1	-314	-3	3	i	6
COC(=O)CN(C(=S)Nc1ccc(F)cc1)C1CC(=O)N(c2ccccc2)C1=O (stereo not given)	-8	-5	7	-5	-3	1	i	5
COc1ccc(NC(=S)Nc2cc(C)cc(C)n2)cc1OC	17	.	0	1	5	4	i	16
CSc1nc(Cl)c(Cc2ccc(OCC(C)C)cc2)c(N2CCOCC2)n1	32	-2	6	22	-7	-19	i	4
Cc1c(C#N)c(O)[nH]c(=O)c1N=Nc1ccc(Br)cc1C(=O)O	-13	-14	?	9	9	4	i	?
COc1ccc2sc(-c3ccc(N(C)C)cc3)c(C#CCO)c2c1	113*	-19	.	-57	-3	-14	.	.
CCCNC(=O)C1(C)CCN(C(=O)c2cccc(C#N)c2)C1 (stereo not given)	.	0	.	0	-65	-1	.	.
COc1ccc(-c2n[nH]c(C)c2-c2cnn(-c3ccccc3)c2)c(O)c1	21	-8	1	-1	4	4	.	-1
O=C(NCC(c1ccco1)N1CCCCC1)c1ccc([N+](=O)[O-])s1 (stereo not given)	-4	-18	.	-4	3	-3	.	.
COc1cccc(C(=O)N2C(C(=O)O)CSC2c2ccccc2Cl)c1 (stereo not given)	-1	.	8	.	-4	10	i	10
Cc1cccc(N2CCN(C(c3ccccc3)c3nnnn3C(C)(C)C)CC2)c1C (stereo not given)	29	-8	-3	25	-24	-24	i	-9
CCOC(=O)C1CCN(Cc2nc3ccc([N+](=O)[O-])cc3c(=O)n2-c2ccc(OC)cc2OC)CC1	-10	.	9	-7	4	2	i	-3
CCCSc1nnc(Cn2c(=O)sc3ccccc32)n1-c1ccccc1	.	-19	-13	-18	1	-3	i	-5
Cn1ccnc1SCC(=O)Nc1ccc(SC(F)F)cc1	-4	-19	.	.	3	-1	.	.
COc1ccccc1/C=N/NC(=O)c1ccc(=O)n(C)c1	8	.	-1	-10	-1	-1	i	3
COc1ccc(/C=C/C(=O)NCCC(=O)N2CCCN(C)CC2)cc1	-5	0	-13	-1	3	8	i	9
CCCCN1CC(COc2ccccc2)OC1=O (stereo not given)	-6	-8	7	.	1	4	i	1
O=C(c1ccco1)N1CCN(C(c2coc3ccc(Cl)cc3c2=O)c2nnnn2C2CCCC2)CC1 (stereo not given)	16	-10	.	.	-6	-8	i	.
O=C(O)CCC(=O)Nc1nc2nc(-c3ccccc3)cc(-c3ccccc3)n2n1	0	-14	-9	.	1	0	+	5
CCN(CC)C(=O)[C@H]1CC(CC(=O)NCCN2CCOCC2)C(=O)N2CCc3c([nH]c4ccccc34)[C@]12C (stereo not given in full)	-21	-9	.	1	3	6	.	.
CCC(=O)N(CCC1(c2ccccc2OC)CCOC(C(C)C)C1)Cc1ccco1 (stereo not given)	6	-14	7	35	-5	-4	i	-5
C=CCNC(=O)c1onc(CSc2cccc(OCC)c2)c1C(=O)O	37	-10	-11	36	0	3	i	3
CC1CCCN(CCCNC(=O)CN2C(=O)CSc3ccc(S(=O)(=O)N4CCOCC4)cc32)C1 (stereo not given)	-10	-5	-15	8	2	7	i	-4
CC(=O)c1ccc(N2CCN(S(=O)(=O)c3ccc4c(c3)CC(=O)N4)CC2)cc1	12	6	-4	-24	2	1	i	-10
O=C(COc1ccc(S(=O)(=O)N2CCCC2)cc1Cl)N1CCN(c2ccccc2)CC1	1	-3	-6	.	6	-1	i	10
Cc1cc(/N=C/C=C2\N(C)c3ccccc3C2(C)C)n(CCC#N)n1	20	-11	0	-12	9	0	i	3
CCOC(=O)c1ccc([N+](=O)[O-])cc1NC(C)=O	.	-7	2	-7	-1	-1	i	1
CCc1ccccc1N(CC(=O)N1CCCCC1)S(=O)(=O)c1ccccc1	-1	-6	-6	-12	-2	-2	i	-8
Cc1cccc(N(CC(=O)N2CCOCC2)S(C)(=O)=O)c1C	-1	7	-4	2	1	5	i	-2
COc1cc2c(cc1OC)C(c1ccsc1)CC(=O)N2 (stereo not given)	-9	-5	-9	.	3	4	i	2
O=C1NCCc2c1[nH]c1ccc([N+](=O)[O-])cc21	-2	.	-12	67*	-8	-4	i	-6
NC(=O)CC1Nc2cccc3cccc(c23)NC1=O (stereo not given)	-20	-9	4	2	-3	0	i	16
Cc1ccc(S(=O)(=O)N(C)c2ccc(C(=O)NCC(c3cccs3)N3CCOCC3)cc2)cc1 (stereo not given)	-5	7	-3	-15	-5	-10	i	-5
CSc1nc(N)nc(SCC(=O)Nc2ccc(Cl)cc2)c1C#N	39	-13	-2	9	3	-9	i	-6
CCCN(CCC)C(=O)COc1cc(=O)n(CC)c2ccccc12	-4	9	5	10	3	4	i	-33
c1ccc(CCn2nnnc2C(c2cccnc2)N2CCOCC2)cc1 (stereo not given)	.	-18	-10	0	1	1	i	6
O=C1CSc2ccccc2N1Cc1ccc(F)cc1	10	-6	-7	.	2	1	i	10
COC(C[C@@H](O)CC(=O)[C@@H](C)OCc1ccccc1)OC	.	-25	-4	-29	-1	2	i	-9
CCNC(=O)C1CC(=O)N(Cc2ccc(F)cc2)C(=Nc2ccc(OC)cc2)S1 (stereo not given)	-15	.	-2	.	0	4	i	-1
COc1ccc(-c2nnc(SCc3nnc(-c4ccccc4)o3)n2C)cc1OC	-3	-14	-4	6	5	3	i	61	eIF4H inh retest=5;PABP FP inh retest=4
C[C@]12C=CC(=O)C=C1CC[C@@H]1[C@@H]2C(=O)C[C@@]2(C)[C@H]1CC[C@]2(O)C(=O)CO	-11&-4	-1&-2	-4	27	-2&2	4&5	i	-3
COC(=O)CSc1nnc(CNC(=O)c2ccc(OC)c(OC)c2)n1C	-9	.	-9	-2	2	3	i	-5
O=C(CCCC(=O)c1ccccc1)NCc1ccccc1	0	2	0	-2	0	2	i	1
O=C(c1ccccc1F)N(Cc1ccccc1)C1CCS(=O)(=O)C1 (stereo not given)	14	2	-8	.	0	-3	i	6

Entries above containing an NH in an aromatic ring:
SMILES	CSC inhib	Yeast UUG start	eIF4H inh	Env fusion inh	MT1-MMP act inh	MT1-MMP act inh RFP	Rce1 inhib	PABP FP inh	others
COc1ccc(CCNC(=O)CSc2cc(=O)[nH]c(N)n2)cc1OC	-6	7	0	.	7	4	i	2
Cc1c(C#N)c(O)[nH]c(=O)c1N=Nc1ccc(Br)cc1C(=O)O	-13	-14	?	9	9	4	i	?
COc1ccc(-c2n[nH]c(C)c2-c2cnn(-c3ccccc3)c2)c(O)c1	21	-8	1	-1	4	4	.	-1
CCN(CC)C(=O)[C@H]1CC(CC(=O)NCCN2CCOCC2)C(=O)N2CCc3c([nH]c4ccccc34)[C@]12C (stereo not given in full)	-21	-9	.	1	3	6	.	.
O=C1NCCc2c1[nH]c1ccc([N+](=O)[O-])cc21	-2	.	-12	67*	-8	-4	i	-6

Bioassay records as filed in PubChem BioAssay.
